Compound activity deposited in PubChem BioAssay by National Center for Advancing Translational Sciences (NCATS).
TRPV1 PAM – human TRPV1 potentiation. Q8NER1. TRPV1-expressing cells, Fluo-8 calcium influx, capsaicin EC20 potentiation; host cell line not named in the record; control for the full effect not named in the record. potentiation, % at 8.33 µM. hit rate 0.02% among 320,000. AID 540277; active means potentiation above 80%; inconclusive means 30% to 80%; inactive means below 30%; note: 0% is about no effect
Target sequence (Q8NER1 whole entry, looked up): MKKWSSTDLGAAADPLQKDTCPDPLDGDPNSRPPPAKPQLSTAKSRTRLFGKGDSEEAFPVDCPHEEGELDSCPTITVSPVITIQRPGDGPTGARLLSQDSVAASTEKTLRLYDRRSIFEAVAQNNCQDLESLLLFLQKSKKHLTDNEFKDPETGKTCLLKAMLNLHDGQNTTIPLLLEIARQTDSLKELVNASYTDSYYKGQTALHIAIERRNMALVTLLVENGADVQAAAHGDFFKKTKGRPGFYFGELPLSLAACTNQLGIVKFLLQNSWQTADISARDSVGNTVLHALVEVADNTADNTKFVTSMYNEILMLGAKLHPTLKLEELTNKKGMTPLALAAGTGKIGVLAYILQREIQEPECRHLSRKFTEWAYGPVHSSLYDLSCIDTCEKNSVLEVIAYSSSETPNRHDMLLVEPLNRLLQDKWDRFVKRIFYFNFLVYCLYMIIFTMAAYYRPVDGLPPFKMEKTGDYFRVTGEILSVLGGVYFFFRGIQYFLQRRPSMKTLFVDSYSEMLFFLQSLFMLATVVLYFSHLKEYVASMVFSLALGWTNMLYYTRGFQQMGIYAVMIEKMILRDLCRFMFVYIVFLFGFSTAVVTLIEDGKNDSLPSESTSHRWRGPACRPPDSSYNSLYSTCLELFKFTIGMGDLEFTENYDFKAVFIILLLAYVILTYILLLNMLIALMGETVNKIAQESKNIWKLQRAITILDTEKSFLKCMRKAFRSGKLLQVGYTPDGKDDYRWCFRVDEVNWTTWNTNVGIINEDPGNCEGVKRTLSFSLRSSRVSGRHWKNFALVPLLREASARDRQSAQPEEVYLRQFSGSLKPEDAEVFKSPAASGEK
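TRPV1-expressing cells were cultured overnight at 35.5C and loaded with Fluo-8 calcium dye for 40 to 90 min at room temperature. After a 10 s baseline, compound was added and calcium influx was read kinetically for 3 min (ex 480/em 520 nm).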
Menin-MLL FL inh – menin-MLL binding inhibition, fluorescein peptide; Fluorescence polarization, fluorescein-MLL peptide displacement from menin; FP activity change, % at 61.4 µM; 290,000 tested, under 10 active; inconclusive = falling polarisation curve, or a change in total fluorescence; inactive = total fluorescence flat and polarisation flat or rising; no compound was filed as active; the % refers to the polarisation; negative = inhibition;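 note: % of control where 0% means no effect; inhibitors lower the polarisation; unlabelled MLL peptide was the positive control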
Sfp PPTase inh – inhibitors of Bacillus subtilis Sfp phosphopantetheinyl transferase; Q9F4F7; Potency, µM, for the others: max response, negative = inhibition, most hits filed as inhibitors; Biochemical Sfp PPTase activity, qHTS; hit rate 3.5% among 310,000; AID 1490; active = well fitted inhibition curve with a large enough effect; inconclusive = small, poorly fitted or top-dose-only effect, or another doubt; inactive = no such curve, though single readings can be large or run the other way;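 note: the enzyme is Sfp with the accession as filed and its product quenches rhodamine fluorescence; potency is the fitted concentration of half-maximal effect; 0% = enzyme reaction without inhibitor and -100% = no enzyme wells; top concentration of the series not given in the record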
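Sfp 15 nM + cpd, 15 min RT; start w/ rhodamine-CoA 5 uM, BHQ-2-YbbR 12.5 uM (final); 50 mM Hepes pH 7.6, 10 mM MgCl2, 0.01% NP-40, 0.01% BSA; read 525/598 nm at 0 and 30 min.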
TRPML1 inh – blocks the human TRPML1 channel | hit rate 0.02% among 390,000 | TRPML1-inducible cells, Ca2+ dye fluorescence, FDSS; stronger effect = lower value; inhibition of EC80 agonist-evoked calcium signal | activity change, negative = inhibition, % (concentration not given with the values); in the data active means activity change below about -50%; inconclusive means about -30% to -50%; inactive means above about -30%;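 note: stimulus is agonist 54-4 at its EC80 concentration; % is set by controls: 0 for no effect and ±100 for the full control effect; compound concentration not given in the record; the text of the record puts the active cut at -80%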
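Calcium fluorescence in TRPML1-DL cells induced overnight with Tet: a 110 s read after compound pin addition, then a 110 s antagonist read after challenge with 54-4 at 4 uM final (EC80).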
PINK1 modulator – changes PINK1 expression | PINK1 immunofluorescence, high-content cytometry, 24 h | hit rate 0.2% among 410,000 | Potency, µM (doses to about 76.6 µM), for inactives: at the top dose activation (PINK1 increase), usual class: activators; active = well fitted activation curve with a large enough effect; inconclusive = small, poorly fitted or top-dose-only effect; inactive = flat fitted curve, though single readings scatter; cell line not stated here;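 note: potency is the fitted concentration of half-maximal effect; % of control where 0% means no effect; nearly all actives have a fitted effect of over 65% in size; a mitochondrial uncoupler was the plate control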
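PINK1 protein, normally rapidly degraded, was detected by immunofluorescence after 24 hour compound treatment of a stable cell line. Titration data (5 concentrations) came from laser-scanning cytometry, with CCCP-treated wells as controls.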
TRPML1 agonist – human mucolipin-1 channel agonism; TRPML1-expressing cells, Ca2+ dye fluorescence, FDSS; host cell line not named in the record; reference of the full effect not given here; activation, % (test concentration not listed); hit rate 0.12% among 410,000; in the data active = activation above about 50%; inconclusive = about 30% to 50%; inactive = below about 30%; note: 0% is about no effect; the text of the record puts the active cut at 80%
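TRPML1-DL cells, Tet-induced overnight (~16 h, 37 degrees C), loaded 45-90 min at room temperature with Ca8 no-wash calcium dye plus quencher. FDSS fluorescence: 10 s baseline, compound pin-transfer, 110 s agonist read, then EC80 54-4 (4uM final) and 110 s antagonist read.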
ClpP mod – qHTS Assay for Activators of ClpP; ATP-dependent Clp protease proteolytic subunit (Bacillus subtilis (strain 168)), P80244; Potency, µM (top dose mostly 57.5 µM), for the others: at the highest dose activity change, negative = active; hit rate 1.9% among 340,000; purified B. subtilis ClpP, FRET peptide cleavage, 20 min; active = well fitted falling curve with a large enough effect; inconclusive = small, poorly fitted or top-dose-only effect; inactive = no such curve, though single readings can be large or run the other way; note: potency is the fitted concentration of half-maximal effect; the source files actives as falling curves though it sought activators and does not explain the sign; nearly all actives have a fitted effect of over 65% in size; many hits overshoot -100%
Target sequence (P80244 whole entry, looked up): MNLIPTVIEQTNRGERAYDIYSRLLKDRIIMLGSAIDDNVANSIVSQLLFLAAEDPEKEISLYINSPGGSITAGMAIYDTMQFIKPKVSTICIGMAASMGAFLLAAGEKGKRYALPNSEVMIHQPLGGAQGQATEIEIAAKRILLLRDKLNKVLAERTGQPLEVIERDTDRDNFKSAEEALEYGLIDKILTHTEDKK
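Buffer: 100 mM Tris/HCl pH8, 100 mM KCl, 0.05% low protease BSA, 2.5% glycerol, 0.01% Tween-20. ClpP 10 microg/mL final; 20 min RT; delta FRET normalized to ADEP and DMSO controls.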
* hit, by the source's call; ? = inconclusive; nt = no result given; & = joins results of further samples; [ ] = another dose, or the depositor's remark.

structure | TRPV1 PAM | Menin-MLL FL inh | Sfp PPTase inh | TRPML1 inh | PINK1 modulator | TRPML1 agonist | ClpP mod
CC(=O)NCCNc1nc(-c2cccnc2)nc2ccccc12 | nt | -1.8 | 17% | nt | -1.2% | nt | nt
Cc1nc(-c2cccc(F)c2)sc1CCNC(=O)C(=O)Nc1ccc2c(c1)OCCO2 | nt | nt | nt | -2 | 5.7% | 1.5 | 48%
COC(=O)[C@]1(Cc2ccccc2)N[C@H](CN(C)C(=O)Nc2ccc(F)cc2)[C@@H]2C(=O)N(Cc3ccccc3)C(=O)[C@@H]21 | nt | nt | nt | -9 | 1.7% | 1.3 | -1.0%
CC(C)C1Nc2ccc(C(=O)O)cc2C2C=CCC21 (stereo not given) | -14 | ? | 28µM* | -4 | 0.2% | 0.3 | -4.1%
CCc1cc2c(=O)n(CC(=O)NC3CCCCC3)cnc2s1 | -7 | nt | 6% | 14 | -0.9% | 0.4 | -1.0%
CCOCCCNC(=O)C1CCN(S(=O)(=O)c2ccc3nc4c(c(C(=O)O)c3c2)CCCCC4)CC1 | -6 | 1.5 | 12% | 19 | 0.5% | -0.3 | -2.0%
Cc1cc(C)n2c(Nc3ccc(C(C)C)cc3)c(-c3ccsc3)nc2n1 | nt | nt | nt | 14 | -0.7% | 0.0 | 19%
CC1=C(C(=O)Nc2cccc(C)c2C)C2(CCCCC2)OC1=O | nt | nt | nt | 4 | 0.4% | -0.3 | 0.0%
COCCNC(=O)/C(C#N)=C/c1ccc(-c2ccc(OC)cc2[N+](=O)[O-])o1 | -8 | 3.4 | -1% | 13 | 0.2% | -1.5 | -2.4%
COc1cc2nc(N(C)C)nc(NC3CCN(C)CC3)c2cc1OC | nt | nt | nt | nt | -0.7% | -0.3 | 4.3%
Cc1ccccc1-n1c(C)cc(/C=C2/C(=N)N3C(c4ccccc4)=CSC3=NC2=O)c1C | 3 | 16 | 7% | 1 | 2.3% | 0.9 | -6.3%
Oc1c(C(c2ccccc2)N2CCCCC2)sc2ncnn12 (stereo not given) | 29 | 3.6 | 7% | 2 | 2.8% | 0.2 | -1.5%
CC(=O)Nc1nc2ccc(NC(=O)c3ccco3)cc2s1 | -19 | -2.2 | 10% | -12 | 0.0% | -0.7 | -0.3%
COc1cc2c(cc1OC)C(COc1ccc(F)cc1)N(C(=O)Cc1ccccc1)CC2 (stereo not given) | nt | nt | nt | 44 | -2.6% | 1.8 | 0.1%
Cc1ccc(CNC(=O)C2CCN(S(=O)(=O)c3ccc4c(c3)oc(=O)n4C)CC2)cc1 | nt | nt | nt | -4 | 1.7% | -0.7 | 1.3%
COc1cc2c(cc1NC(=O)COC(=O)[C@@H](NS(=O)(=O)c1cccc(Cl)c1)C(C)C)oc1ccccc12 | 1 | 5.8 | 13% | 9 | 0.5% | -0.1 | ?
O=C(NCCCn1ccnc1)C(=O)NCC(c1ccco1)N1CCN(c2ccc(F)cc2)CC1 (stereo not given) | -2 | -7.9 | 13% | nt | 1.1% | nt | -3.4%
CCOc1ccc(S(=O)(=O)N2CCC(C(=O)N3CCc4ccccc4C3)CC2)cc1 | -9 | -6.2 | 3% | -4 | 0.6% | 0.9 | 0.3%
CC(C)Cc1nc(SCC(=O)N2CC(C)OC(C)C2)c2c(=O)n(C)c(=O)n(C)c2n1 (stereo not given) | 15 | nt | 0% | 4 | 0.1% | 0.1 | -2.2%
O=C(COC(=O)/C=C/c1ccccc1)NCC1CCCO1 (stereo not given) | 7 | -0.2 | 14% | 15 | 0.2% | 0.8 | -2.4%
Fc1ccccc1COc1ccccc1CNCc1ccncc1 | -19 | 0.0 | -9% | 9 | nt | 0.0 | 0.3%
COc1ccc(OCCSc2ncn[nH]2)cc1 | -3 | 0.0 | 13% | 15 | 0.3%[38.3 µM] | -0.1 | 0.2%
Cc1c(C(=O)N2CCN(c3ccccc3)CC2)sc2ncnc(N3CCC(C)CC3)c12 | -11 | 5.0 | ? | nt | nt | nt | nt
O=C(Nc1ccccc1N1CCOCC1)c1ccc(Cl)nc1 | 3 | -0.4 | -6% | -4 | 1.1% | 0.0 | nt
c1ccc2sc(N3CN(CCN4CCOCC4)CN(c4nc5ccccc5s4)C3)nc2c1 | -15 | 3.3 | -14% | 6 | -3.8% | 3.7 | -2.2%
CC(C)N(CCNC(=O)C1CCN(S(=O)(=O)N2CCOCC2)CC1)Cc1ccccc1 | 5 | 0.9 | 28% | 3 | 1.0% | -0.7 | 0.5%
Cc1ccc(C(=O)NCCc2cc3ccc(C)c(C)c3[nH]c2=O)cc1[N+](=O)[O-] | 5 | 5.2 | 11% | -2 | -1.4% | -0.3 | -3.2%
CCOC(=O)C(C)(C)N(Cc1ccc(Cl)cc1)S(=O)(=O)c1ccc(Cl)c([N+](=O)[O-])c1 | -2 | 4.5 | -3% | nt | nt | nt | nt
Cc1cccc(CN2[C@H](COC(=O)Nc3ccccc3)C=CS2(=O)=O)c1 | nt | nt | nt | nt | 0.9% | -0.6 | -0.7%
COc1cc2oc3ccc(C#Cc4ccc(N)cc4)cc3c(=O)c2cc1OC | nt | nt | nt | 8 | 7.4% | -0.2 | -6.8%
O=C(COC(=O)Cc1ccc(Cl)cc1Cl)NCc1ccco1 | nt | nt | nt | 2 | 0.5% | 0.6 | -0.5%
Cc1ccc(S(=O)(=O)N2CCCC2CNC(=O)C(=O)Nc2ccc(F)cc2)cc1 (stereo not given) | -14 | nt | nt | 27 | 3.9% | 2.3 | -2.2%
Nc1nc(N2CCOCC2)cc(=O)[nH]1 | 9 | ? | -23% | 24 | -2.4% | 0.8 | -5.3%
CC(=O)c1ccc(NC(=O)COc2ccccc2C(=O)Nc2ccccc2)cc1 | 0 | nt | -17% | -14 | 2.9%&-1.1% | 1.0&0.3 | -1.6%&-1.1%
CN(CC(=O)Nc1cc(S(=O)(=O)N2CCCCCC2)ccc1Cl)Cc1ccc2c(c1)OCO2 | 26 | nt | nt | 30 | 0.8% | 1.8 | -2.7%
COc1ccc(NC(=O)c2ccc(COc3ccccc3)o2)cc1 | -4 | 1.4 | -1% | -16 | -3.5% | 3.0 | 7.9%
Cc1ccc(-n2[nH]c(C)c(/C=C3/C=Nc4ccccc43)c2=O)cc1C | -7 | 0.4 | 16% | 7 | 9.2% | 3.8 | -0.9%
CCCC(C)NC1=NCCCCC1 (stereo not given) | -9 | 1.8 | 21% | -12 | -3.9%[38.3 µM] | 0.6 | -3.0%
COc1ccc(C(=O)N/C(=C\c2ccco2)C(=O)NC2CCS(=O)(=O)C2)cc1 (stereo not given) | -9 | -5.0 | 16% | -10 | 0.2% | -0.8 | nt
Cc1cccc(NC(=S)NNC(=O)c2nn(C)cc2Cl)c1 | 4 | -0.9 | 10% | -2 | -0.9% | -1.0 | 1.6%
Cc1cc(NC(=O)C(C)SCC(=O)N(C)CC(=O)Nc2ccc(Br)cc2C)no1 (stereo not given) | -13 | nt | 3% | -2 | 1.6% | 1.3 | -2.2%
O=C(NCCNc1ccc([N+](=O)[O-])cc1)c1ccccc1Cl | nt | nt | nt | 59 | 0.8% | -0.8 | 1.5%
O=S(=O)(NCc1ccco1)c1ccc2ccccc2c1 | -4 | nt | -2% | 9 | 2.7% | 0.3 | nt
O=C(c1ccccc1[N+](=O)[O-])N1CCC(Cc2ccccc2)CC1 | -2 | 5.3 | 15% | -10 | 1.2%[38.3 µM] | 3.8 | 1.6%
CS(=O)(=O)Nc1ccc(-c2n[nH]c(=S)n2-c2ccccc2)cc1 | 2 | 2.2 | -9% | 15 | nt | -0.1 | ?
COc1ccc(CNC(=O)CCCCCn2c(SCC#N)nc3cc4c(cc3c2=O)OCO4)cc1 | 8 | -1.3 | -27% | -10 | 29%[38.3 µM] | 0.0 | -7.9%
CCC1CN(C(=O)N2CCC(C(=O)NCCc3ccccc3)CC2)c2ccccc2O1 (stereo not given) | ? | nt | 10% | -3 | 0.2% | 0.3 | -0.6%
CCOc1ccc(Nc2nc3c(S(=O)(=O)c4ccc(C(C)C)cc4)nnn3c3ccsc23)cc1 | nt | nt | nt | -12 | 1.9% | 0.2 | -2.0%
COC(=O)Cc1c(C)c2ccc(OC(C)C)cc2oc1=O | -3 | -3.1 | 5% | 32 | 0.6% | 1.9 | 3.2%
CCCOC(=O)Nc1sc2c(c1C(N)=O)CCCC2 | 19 | 0.3 | 9% | -7 | 5.3% | 1.6 | -23%
Cc1ccc(C(=O)O)cc1S(=O)(=O)N1CCOCC1 | 3 | -0.4 | 13% | -4 | -2.9%[38.3 µM] | -0.2 | -0.1%
CNC(=O)Cn1c(C)cc(=O)c2cccc(C)c21 | -23 | -0.7 | 10% | -1 | 0.1% | -0.2 | 0.9%
CCCS(=O)(=O)c1ncc(Cl)c(C(=O)N2CCN(c3ccc(OC)cc3)CC2)n1 | nt | nt | nt | -5 | 0.2% | 0.2 | 0.1%
COc1ccc(/C=C/C(=O)Nc2nc(-c3cccs3)ns2)cc1OC | nt | nt | nt | -20 | 4.3% | 4.6 | ?
COc1ccccc1NC(=O)CCC(=O)c1ccc(-c2ccccc2)cc1 | 12 | 13 | -2% | 6 | 0.1% | 2.4 | -7.0%
Cc1cc(OCCCC(=O)Nc2cccc(-n3cnnn3)c2)ccc1Cl | 2 | 2.6 | 2% | -9 | ? | 1.5 | -1.2%
CCC12CN(C(=O)c3ccco3)CC(CC)(CN(C(=O)c3ccco3)C1)C2=O | 3 | nt | 12% | -7 | -2.0% | 0.4 | -11%
C=CCn1c(=O)c(C(=O)Nc2ccccc2S(N)(=O)=O)c(O)c2ccccc21 | -3 | 0.3 | 14% | -12 | 2.4% | 0.6 | -3.3%
O=C(CCNS(=O)(=O)c1cccs1)N1CCN(c2cccc(C(F)(F)F)c2)CC1 | -3 | nt | nt | -7 | -0.1% | 3.0 | 0.8%
CC1CCCCN1C(=O)COc1ccc2ccc(=O)oc2c1 (stereo not given) | 6 | -4.1 | 19% | 50 | 1.4% | 0.0 | nt
